# Insulin prom inh = TRM-6 insulin promoter activity inhibition; 130,000 compounds, 0.9% hits; AID 1273; inhibition, % at 2 µM; TRM-6 cells (human fetal islet line), insulin promoter-eGFP reporter, imaging; reporter expression induced with tamoxifen;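 active = inhibition above the mean plus 3 SD, with well images judged a real hit on visual review, cut at about 60% in these data, passing the limit was not always enough; inconclusive = inhibition over the cutoff but images rejected on review; inactive = inhibition not above the cutoff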
# PKD1 inh = PKD1 (human) kinase inhibition; inhibition, %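 (about 10 µM by stock and volumes)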; Q15139; AID 797; PKD1 kinase fluorescence polarization assay; 200,000 compounds, 0.056% hits;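 active = inhibition of 50% or more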;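 note: controls were vehicle for no effect and a reference inhibitor for full effect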
# RGS16-Gao = RGS16-Galphao interaction regulator (human) | bead-based flow cytometry RGS16-Galphao binding, fluorescence; actives lie on both sides | binding response (% of control), % at 10 µM | 220,000 compounds, 0.38% hits;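 active = below 25% or above 175%, edge rows of some plates excepted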;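 note: Galphao activated by GDP with aluminum fluoride before binding; 100% = wells without compound and 0% = beads without RGS; some results beyond the cut were filed as inactive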
# Target sequence (O15492 whole entry, looked up): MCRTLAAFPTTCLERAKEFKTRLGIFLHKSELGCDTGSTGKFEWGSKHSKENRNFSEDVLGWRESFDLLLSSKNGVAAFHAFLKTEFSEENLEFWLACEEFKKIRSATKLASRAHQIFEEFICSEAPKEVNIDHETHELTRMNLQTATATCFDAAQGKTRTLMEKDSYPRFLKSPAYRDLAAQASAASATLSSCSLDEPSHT
# Target sequence (P09471 whole entry, looked up): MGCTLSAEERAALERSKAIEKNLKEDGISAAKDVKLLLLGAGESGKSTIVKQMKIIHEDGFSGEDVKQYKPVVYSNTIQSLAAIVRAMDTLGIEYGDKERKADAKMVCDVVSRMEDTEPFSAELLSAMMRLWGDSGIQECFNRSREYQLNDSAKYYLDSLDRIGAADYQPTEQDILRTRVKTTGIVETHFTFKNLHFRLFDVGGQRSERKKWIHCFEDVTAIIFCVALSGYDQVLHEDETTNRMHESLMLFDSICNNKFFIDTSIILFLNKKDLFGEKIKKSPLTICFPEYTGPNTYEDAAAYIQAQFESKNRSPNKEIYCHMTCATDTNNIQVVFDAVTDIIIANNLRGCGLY
# HSV augment = increases HSV replication in cells | maximum fold increase | 220,000 compounds, 0.005% hits | AID 1956 | HSV replication augmentation in cells, fold increase;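 active = peak rise of 1.5-fold or more in the series; inconclusive = self-fluorescent or not available for retest; tested in PC3 cells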;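 note: first round at 10 µM; read as green reporter fluorescence; hits show the peak of a series up to 25 µM; 1 = signal of infected wells without compound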
# GALR2 agonist = activates the human galanin receptor 2; GALR2-expressing cells, agonist activation read-out; O43603; 140,000 compounds, 0.48% hits; AID 803; activation, %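 (tested at 5 µM)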;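 active = above mean plus 3 SD of all compounds, about 5% in these data, not always enough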;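 note: 0% = vehicle buffer wells and 100% = reference agonist at full effect; tested in CHO reporter cells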
# Target sequence (O43603 whole entry, looked up): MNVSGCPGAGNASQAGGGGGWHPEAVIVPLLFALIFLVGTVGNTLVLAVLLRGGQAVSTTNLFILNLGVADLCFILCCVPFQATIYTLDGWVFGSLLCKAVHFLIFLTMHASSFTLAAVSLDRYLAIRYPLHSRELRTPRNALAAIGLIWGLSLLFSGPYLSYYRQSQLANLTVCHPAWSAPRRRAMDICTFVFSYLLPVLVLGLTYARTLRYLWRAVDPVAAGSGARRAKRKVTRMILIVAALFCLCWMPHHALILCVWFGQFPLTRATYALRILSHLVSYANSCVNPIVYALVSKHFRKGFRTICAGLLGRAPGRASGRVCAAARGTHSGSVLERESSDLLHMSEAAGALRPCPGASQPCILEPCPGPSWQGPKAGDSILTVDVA
# Insulin prom inh cell count = further read-out of Insulin prom inh, marked with its call; normalized cell count, %; measured here: cell count, toxicity; reference of the scale not given here;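 cells exposed to compound for 48 h; stained nuclei by imaging scaled within each plate; lower means fewer cells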
# HSV augment primary fold = further read-out of HSV augment, marked with its call; fold increase; compound at 10 µM; measured here: primary screen fold increase 10 uM; tested in PC3 cells;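 GFP signal in the first replicate; 1 = infected wells without compound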
# Numbers without * were called inactive; i = inactive; u = inconclusive; x = not tested or not shown.
# Values run as follows: Insulin prom inh, Insulin prom inh cell count, PKD1 inh, RGS16-Gao, HSV augment, HSV augment primary fold, GALR2 agonist
> COC(=O)C1=C(C)NC(=O)CC1c1cc(Br)ccc1F (configuration not stated)
    -24, 108, 0, 100, i, 1, -1.4
> O=C(Nc1cnc2sc3c(n2c1=O)CCCC3)c1ccc(F)cc1
    x, x, 11, 101, i, 0.94, -1.2
> O=C(CSc1nnc(CNc2ccccc2)o1)N1CCN(C(=O)c2ccco2)CC1
    -48, 95, 2, 100, i, 0.98, -0.5
> Cc1cc(C)n(-c2nnc(C)n2/N=C/c2cc(Br)ccc2OCc2ccccc2)n1
    -36, 100, 31, 102, i, 0.89, -0.5
> CC(=O)C1=NN(c2ccccc2)C(c2cccs2)N1c1ccc(N(C)C)cc1 (configuration not stated)
    18, 71, 0, 87, i, 0.98, -0.5
> CCN(C(=O)/C=C/c1ccc2c(c1)OCO2)c1ccccc1
    17, 123, 11, 105, i, 0.9, 0.3
> CCC(C(=O)NC1CCCC1)n1c(SCc2cccc(C)c2)nc2ccncc21 (configuration not stated)
    -10, 124, 2, 93, i, 1, -0.8
> O=C(Nc1ccc(S(=O)(=O)NCC2CCCO2)cc1)c1ccc(Cl)cc1[N+](=O)[O-] (configuration not stated)
    x, x, 3, 100, i, 0.96, x
> Cc1ccc2c(CC(=O)NCc3ccc4c(c3)OCO4)coc2c1
    0, 68, -16, 103, i, 0.95, -2.3
> COc1ccc(-c2cc(C(F)(F)F)nc(S(=O)(=O)CCCC(=O)Nc3cc(C)on3)n2)cc1OC
    x, x, -4, 98, i, 0.67, x
> Nc1ncc(CCN2CCOCC2)c(-c2ccc(F)cc2)n1
    x, x, 10, 99, i, 1.1, x
> CC1CCCCN1c1ccc(N)cc1C(N)=O (configuration not stated)
    -14, 134, -1, 98, i, 1, x
> COc1ccc(NC(=O)CN2c3cccc4cccc(c34)S2(=O)=O)c(OC)c1
    -56, 149, -6, 97, x, x, -0.9
> Cc1ccc(/C=C(/C#N)C(=O)NC(=O)Oc2ccccc2)cc1
    4, 140, -4, 101, x, x, -3.0
> O=C(CSc1nc2ccccc2s1)NNC(=S)Nc1ccccc1
    3, 87, 8, 106, i, 1, -0.2

# (further entries)
# Values run as follows: Insulin prom inh, Insulin prom inh cell count, PKD1 inh, RGS16-Gao, HSV augment, HSV augment primary fold, GALR2 agonist
> CC1CC(C)CN(c2ccc(C(=O)NCc3ccc4c(c3)OCO4)cc2[N+](=O)[O-])C1 (configuration not stated)
    -31, 105, 0, 124, i, 0.91, -0.7
> NC(=O)COC(=O)c1ccc(S(=O)(=O)NCc2ccco2)cc1
    x, x, -2, 100, i, 0.99, x
> C=CCOc1ccc(/C(O)=C2/C(=O)C(=O)N(CCCN3CCOCC3)C2c2ccc(OC)cc2)cc1 (configuration not stated)
    11, 123, -3, 109, i, 1, -0.2
> Cc1c(N2C(=O)/C(=C3\C(=O)N(CC(=O)O)c4ccccc43)SC2=S)c(=O)n(-c2ccccc2)n1C
    x, x, x, 103, i, 0.94, x
> O=C(COC(=O)c1cccc(S(=O)(=O)N2CCc3ccccc32)c1)NCc1ccco1
    x, x, 1, 98, i, 0.78, x
> C(=N\Nc1nc(-c2ccccc2)cs1)/c1ccco1
    x, x, 4, 96, i, 1, -1.1
> Fc1ccccc1CSc1nnc(-c2cccs2)o1
    -18, 109, -4, 96, i, 0.79, -2.5
> CNc1c([N+](=O)[O-])ncn1C
    38, 83, -2, 101, i, 0.96, -3.8
> Cc1ccc(S(=O)(=O)NCC(=O)OCC(=O)c2c(N)n(C)c(=O)n(C)c2=O)cc1
    -85, 129, -6, 101, i, 0.9, -0.6
> Cc1ccc(-c2nn3c(C)nnc3c3ccccc23)cc1S(=O)(=O)NCc1ccccc1
    20, 53, -12, 94, i, 0.88, -2.5
> CS(=O)(=O)N1CCC(C(=O)NCc2ccncc2)CC1
    -6, 98, -2, 96, x, x, -0.6
> CC(C)Nc1c(N)c(=O)oc2ccccc12
    37, 113, 1, 97, i, 0.93, -2.1
> C=C1C(=O)C=C2CN(C(=O)c3ccccc3)[C@@](Cc3ccc(F)cc3)(C(=O)OC)[C@@H]12
    -400, 0, -5, 95, i, 0.55, -1.6
> COc1ccc(CC2S/C(=N/N=C/c3ccccc3O)NC2=O)cc1 (configuration not stated)
    x, x, x, 98, i, 0.91, x
> CC1CCN(CCCNC(=O)C2CC(=O)N(C3CCCCCC3)C2)CC1 (configuration not stated)
    23, 78, 12, 102, i, 1, -0.9

# Next part
# Values run as follows: Insulin prom inh, Insulin prom inh cell count, PKD1 inh, RGS16-Gao, HSV augment, HSV augment primary fold, GALR2 agonist
> CCCCc1c(C)c(C#N)c2nc3ccccc3n2c1Nc1c(C)n(C)n(-c2ccccc2)c1=O
    31, 76, -6, 116, i, 0.93, 0.1
> COc1ccccc1/C=C/C=N/NC(=O)CN1CCN(S(=O)(=O)c2ccc(C)cc2)CC1
    x, x, -4, 105, i, 1.1, -0.7
> Cc1ccn2c(NC3CCCC3)c(-c3ccccn3)nc2c1
    x, x, -3, 102, i, 0.8, x
> COc1cc(OC)c(N2CC34C=CC(O3)C(C(=O)O)C4C2=O)cc1Cl (configuration not stated)
    x, x, -10, 97, i, 0.92, -1.9
> Cc1ccc2c(c1)nnn2C1CCN(C(=O)Nc2ccccc2C)CC1
    13, 41, -1, 101, i, 0.94, x
> O=[N+]([O-])c1ccc(N2N=C(c3ccco3)CC2c2ccccc2)cc1 (configuration not stated)
    -106, 96, -11, 101, u, x, 3.2
> CCC(C)c1ccc(OCCN2CCCC2)cc1 (configuration not stated)
    17, 66, 9, 102, i, 0.98, -3.3
> Cc1ccc(C#CC[N+]2(C)CCCCC2)cc1
    x, x, x, 103, i, 1, x
> O=C(NNC(=S)Nc1ccccc1)c1cccc(S(=O)(=O)N2CCOCC2)c1
    -45, 27, -1, 113, i, 0.88, x
> Cc1ccc(C(=O)NC2CCCc3ccccc32)o1 (configuration not stated)
    -29, 73, -6, 100, i, 0.7, -2.0
> CCn1c(SCC(=O)Nc2cc(C)on2)nnc1-c1cccs1
    7, 112, -12, 98, i, 1, -1.7
> COCCN1C(=O)C(=O)/C(=C(/O)c2cccc(OC)c2)C1c1ccncc1 (configuration not stated)
    17, 51, 0, 100, i, 0.99, 0.7
> CCOc1ccc(OCC)c(NC(=O)CCn2cccc2)c1
    0, 83, -5, 103, i, 0.97, -1.3
> N#CC(C#N)=c1ccc2c(c1)N1C(c3ccccc3)=CC(c3ccccc3)C3CCCCC31N=2 (configuration not stated)
    x, x, x, 105, i, 0.7, x
> CC(=O)C1=C(O)C(=O)N(Cc2cccnc2)C1c1ccc(Cl)cc1Cl (configuration not stated)
    -127, 108, -3, 104, i, 0.97, -3.8

# Continued:
molecule | Insulin prom inh | Insulin prom inh cell count | PKD1 inh | RGS16-Gao | HSV augment | HSV augment primary fold | GALR2 agonist
Cc1ccc(Nc2nc(N3CCOCC3)c3ccccc3n2)cc1 | x | x | -6 | 109 | i | 0.92 | -0.4
O=C(NCc1cccc2ccccc12)Nc1ccccc1 | -47 | 46 | -12 | 104 | i | 0.93 | x
CSC1=NCCN1C(=O)c1cccs1 | x | x | -6 | 101 | i | 1 | 0.1
O=C(CCS(=O)(=O)c1cccc2nonc12)N1CCOCC1 | x | x | -10 | 107 | i | 0.93 | -1.2
CCC(=O)NC(/C=C/c1ccccc1)c1cc([N+](=O)[O-])c2cccnc2c1O (configuration not stated) | x | x | 3 | 79 | i | 1.1 | -0.5
O=S(=O)(Nc1nc2ccc(S(=O)(=O)N3CCCCC3)cc2s1)c1ccccc1 | 29 | 192 | -3 | 115 | i | 0.9 | -1.7
CC1CCN(C(=S)c2ccc(O)cc2)CC1 | -34 | 188 | -5 | 100 | i | 0.73 | -0.2
O=C(O)CCC(=O)NC1CCCCC1NC(=O)CCC(=O)O (configuration not stated) | -6 | 241 | -9 | x | x | x | -2.0
CC(C)c1ccc(NC(=O)CCCN2C(=S)NC(C)(C)CC2C)cc1 (configuration not stated) | x | x | -4 | 99 | i | 0.95 | x
Cc1ccc(NC(=O)c2ccccc2CCc2ccccc2)c(C)c1 | x | x | -1 | 103 | i | 0.82 | -4.6
FC(F)(F)Oc1ccccc1-c1nnc(-c2cccc(C(F)(F)F)c2)o1 | x | x | x | 99 | i | 0.88 | x
CC(NC(=S)Nc1ccc(Cl)cc1Cl)C(c1cccs1)N1CCCC1 (configuration not stated) | -29 | 68 | -11 | 109 | i | 0.66 | -2.1

# New compounds follow.
molecule | Insulin prom inh | Insulin prom inh cell count | PKD1 inh | RGS16-Gao | HSV augment | HSV augment primary fold | GALR2 agonist
Cc1nn(C)c(Sc2ccccn2)c1[N+](=O)[O-] | x | x | x | 104 | i | 1.1 | x
Cc1ccc(NS(=O)(=O)c2ccc(NC(=O)c3ccc(Br)o3)cc2)c(C)c1 | 71 | 107 | -6 | 99 | i | 0.97 | 0.1
Cc1c(NC(=O)CCc2ccccc2)cccc1[N+](=O)[O-] | 18 | 101 | 1 | 107 | i | 0.98 | x
CCOc1ccc(NC(=O)CSc2nnc(-c3ccccc3Cl)n2Cc2ccco2)cc1 | x | x | -6 | 94 | i | 1 | -1.2
COc1ccc(Cn2c(=O)[nH]c3cc(C(=O)N4CCN(Cc5ccccc5)CC4)ccc3c2=O)cc1 | x | x | -3 | 103 | i | 1.1 | -2.0
COc1ccccc1-n1c(SCC(=O)NCc2ccc3c(c2)OCO3)nc2cc([N+](=O)[O-])ccc21 | -60 | 209 | -11 | 83 | i | 1 | -2.0
N#C/C(=C(/O)CN1CCN(c2ccccc2F)CC1)c1nc(-c2ccccc2)cs1 | -5 | 139 | 8 | 82 | i | 0.99 | -2.4
CC(C)c1ccc2[nH]c3c(c2c1)CCCC3=O | 0 | 123 | -3 | 92 | i | 0.85 | x
CC(=O)c1ccc(N2CCN(C(=O)CCCn3c(=O)[nH]c4ccc(Br)cc4c3=O)CC2)cc1 | 58 | 182 | 5 | 106 | i | 0.82 | x
O=C1C2(CCCC13COC(c1ccc(O)cc1)OC3)COC(c1ccc(O)cc1)OC2 (configuration not stated) | x | x | x | 98 | i | 0.93 | x
O=C(Nc1ccc(NC(=O)c2ccccn2)cc1)C(=O)Nc1ccc2c(c1)OCCO2 | 8 | 61 | -8 | 99 | i | 0.91 | x
CCc1ccc(NC(=O)COC(=O)C2(c3ccc(Cl)cc3)CCCC2)cc1 | x | x | 8 | 101 | i | 1.1 | 0.2

# Following part:
molecule | Insulin prom inh | Insulin prom inh cell count | PKD1 inh | RGS16-Gao | HSV augment | HSV augment primary fold | GALR2 agonist
Cc1cccc(C)c1N/C=C/c1onc(C)c1[N+](=O)[O-] | 4 | 94 | -1 | 104 | i | 0.93 | -1.1
Cc1ccccc1-n1c(Cn2c(=O)sc3ccccc32)nnc1SCC(=O)N1CCOCC1 | x | x | 5 | 103 | i | 0.85 | -2.1
Cc1ccc2nc(-c3ccc4c(c3)OCCO4)cn2c1 | x | x | x | 103 | i | 0.8 | x
Cc1cccc(C)c1NS(=O)(=O)c1ccc(NC(=O)c2ccc(Cl)c([N+](=O)[O-])c2)cc1 | 27 | 108 | -2 | 88 | i | 0.64 | -0.4
NC(=O)C1CCCN(Cc2ccc(Cl)cc2)C1 (configuration not stated) | 55 | 114 | 17 | 103 | i | 0.93 | -0.2
Cc1ccnc(NC(=O)c2sc3ccccc3c2Cl)c1 | 8 | 98 | -5 | 109 | i | 0.88 | -1.5
CN(C)S(=O)(=O)c1ccc(C(=O)Nc2ccccc2[N+](=O)[O-])cc1 | 32 | 124 | 32 | 114 | i | 0.83 | -0.3
CC(=O)c1ccc(NC(=O)C2CCC(C)NC2=O)cc1 (configuration not stated) | -34 | 75 | -19 | 97 | i | 1 | -0.5
c1ccc(Cc2nnc3sc(Nc4ccccc4)nn23)cc1 | 16 | 123 | -5 | 93 | i | 0.99 | -1.6
C/C=C/c1ccccc1OCc1ccc(C(=O)O)o1 | 11 | 112 | -8 | 102 | i | 1 | -3.0
